MBNL1-CUG inh: MBNL1-poly(CUG) RNA binding inhibition | Q9NR56 | TR-FRET MBNL1-His/biotin-(CUG)12 binding, 665/545 ratio | Potency, µM (top dose mostly 57.5 µM), inactives show at the top dose activity change, negative = inhibition, actives largely listed as inhibitors | hit rate 0.036% among 280,000; active = well fitted inhibition curve with a large enough effect in the signal ratio, with a control signal flat, not every such curve was filed as active; inconclusive = small, poorly fitted or top-dose-only effect, or effect the other way, or a change in a side signal; inactive = no such curve, though single readings can be large or run the other way; the % refers to the signal ratio; also: % is scaled to controls: 0 for no effect and ±100 for the full control effect
Target sequence (Q9NR56 whole entry, looked up): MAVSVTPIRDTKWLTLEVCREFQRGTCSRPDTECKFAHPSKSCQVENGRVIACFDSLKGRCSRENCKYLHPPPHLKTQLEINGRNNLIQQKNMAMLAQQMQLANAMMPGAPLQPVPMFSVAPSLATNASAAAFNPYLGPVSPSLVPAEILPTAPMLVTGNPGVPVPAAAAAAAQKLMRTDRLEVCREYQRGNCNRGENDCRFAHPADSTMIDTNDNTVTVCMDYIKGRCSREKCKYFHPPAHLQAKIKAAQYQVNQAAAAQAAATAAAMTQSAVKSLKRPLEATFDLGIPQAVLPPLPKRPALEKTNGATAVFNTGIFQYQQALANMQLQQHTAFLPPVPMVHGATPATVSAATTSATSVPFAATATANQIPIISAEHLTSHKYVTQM
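MBNL1-His + Biotin-(CUG)12, cpd titration 92 nM–58 uM; Tb anti-His Ab 0.055 ng/ul, SA-XL665 5 nM (final); 60 min RT; ratiometric 665/545 nm, Ex 340 nm; normalized to buffer and full-complex controls.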
uPA generation: cell surface uPA generation inhibition; cell surface uPA generation assay, qHTS; Potency, µM (top dose mostly 38.3 µM), without a hit: top-dose activity change, negative = inhibition, usual class: inhibitors; hit rate 0.31% among 330,000; active = well fitted inhibition curve with a large enough effect; inconclusive = small, poorly fitted or top-dose-only effect; inactive = no such curve, though single readings can be large or run the other way; tested in mouse RAW 264.7 cells; also: % is scaled to controls: 0 for no effect and ±100 for the full control effect; nearly all actives have a fitted effect of over 55% in size
VP16 counter: counter-screen for ROR gamma inhibitors: Gal4-VP16 reporter; Drosophila S2 Gal4-VP16 UAS-luciferase, luminescence, 20 h; Potency, µM (highest dose often 53.6 µM), for the others: at the highest dose activity, negative = inhibition, actives largely listed as inhibitors; hit rate 3.5% among 310,000;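 also: Gal4-VP16 expression switched on by copper sulfate through the metallothionein promoter; % is scaled to controls: 0 for no effect and ±100 for the full control effect; nearly all actives have a fitted effect of over 50% in size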
ELG1 genotox: inducers of genotoxicity in HEK293T ELG1-luciferase cells; HEK293T ELG1-luciferase reporter, luminescence, 16 h; hit rate 1.3% among 330,000; Potency, µM (series often up to 46 µM), without a hit: at the highest dose activity change, positive = activation, hits mostly activators; AID 504466; also: % of control where 0% means no effect; nearly all actives have a fitted effect of over 60% in size
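Step 1: seed 2,000 HEK293T ELG1-luciferase cells per well. Step 2: add compound or DMSO, incubate 16 hr at 37 °C. Step 3: ONE-Glo, 30 min at room temperature, read luminescence.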
BRCA1 expr act: increases BRCA1 expression. MCF7-BRCA1-FFLuc reporter, luminescence, 48 h; response scale: scaled: vehicle 0%, 10 µM genistein 100%. Potency, µM (titrated, usually from 46.1 µM), without a hit: at the top dose activation, hits mostly activators. hit rate 1.1% among 380,000; also: nearly all actives have a fitted effect of over 80% in size; some results filed as inactive show a strong effect at the top dose
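Activators of BRCA1 expression were detected as increased firefly luciferase luminescence in engineered MCF7 cells after 48 h compound incubation. Signals were scaled to genistein 10 microM as full activation.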
Rab9 promoter act: activators of Rab9 promoter; Huh7 Rab9 promoter-luciferase reporter, luminescence, 24 h; Potency, µM (top dose mostly 9.22 µM), inactives show at the top dose activation, negative = inhibition, actives largely listed as activators; hit rate 2.8% among 320,000; also: % of control where 0% means no effect; nearly all actives have a fitted effect of over 60% in size
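Luciferase signal after 10 min detection reagent at ambient indicates Rab9 promoter upregulation; stably transfected Huh7 cells were treated 24 h with compound in DMSO at 37 °C, 5% CO2.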
RORg inh: ROR gamma (mouse) transcription inhibition; hit rate 5.4% among 310,000; Potency, µM (highest dose often 53.6 µM), for the others: at the top dose activity change, negative = inhibition, usual class: inhibitors; P51450; Drosophila S2 Gal4-RORgamma UAS-luciferase reporter, 20 h; also: % is scaled to controls: 0 for no effect and ±100 for the full control effect; nearly all actives have a fitted effect of over 60% in size
Target sequence (P51450 whole entry, looked up, the tested form may be a part): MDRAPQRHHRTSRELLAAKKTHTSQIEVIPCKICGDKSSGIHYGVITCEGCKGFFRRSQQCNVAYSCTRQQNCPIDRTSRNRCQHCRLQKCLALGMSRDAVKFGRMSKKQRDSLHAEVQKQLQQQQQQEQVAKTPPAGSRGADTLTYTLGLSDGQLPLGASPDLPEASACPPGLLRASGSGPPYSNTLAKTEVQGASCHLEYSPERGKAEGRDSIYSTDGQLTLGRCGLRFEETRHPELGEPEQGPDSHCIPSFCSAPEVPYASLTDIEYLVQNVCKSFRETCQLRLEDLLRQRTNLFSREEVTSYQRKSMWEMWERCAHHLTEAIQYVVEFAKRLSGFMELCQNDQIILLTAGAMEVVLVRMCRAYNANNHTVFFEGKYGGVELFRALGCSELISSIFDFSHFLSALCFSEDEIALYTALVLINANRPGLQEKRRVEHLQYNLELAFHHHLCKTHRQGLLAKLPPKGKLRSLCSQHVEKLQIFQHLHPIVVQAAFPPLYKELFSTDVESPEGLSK
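Luminescence from a UAS-regulated Photinus luciferase reporter in stably transfected Drosophila Schneider cells is measured; decreased signal marks ROR gamma inhibition. Fusion expression is induced by 700 uM copper sulfate for 20 hr.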
CXXC DNA block: inhibitors of human MLL CXXC domain-DNA interaction | MLL-CXXC / FITC-HOXA9 DNA fluorescence polarization | Potency, µM (doses to about 115 µM), for the others: at the highest dose activity change, negative = inhibition, actives largely listed as inhibitors | hit rate 0.037% among 290,000 | AID 2662; active = well fitted inhibition curve with a large enough effect in the polarisation, with a control signal flat, not every such curve was filed as active; inconclusive = small, poorly fitted or top-dose-only effect, or effect the other way, or a change in a side signal; inactive = no such curve, though single readings can be large or run the other way; the % refers to the polarisation
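Purified MLL-CXXC (added from a 7 uM solution) was preincubated 5 min at ambient with pinned compounds in 50 mM Tris-HCl pH 7.5, 50 mM NaCl, 1 mM DTT, 0.05% BSA. Fluorescein-labeled HOX-A9 DNA (50 nM solution) followed, 30 min, then polarization read.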
NPC1 promoter act: NPC1 promoter activation; Huh7 NPC1 promoter luciferase reporter, 24 h; Potency, µM (top dose mostly 9.22 µM), without a hit: at the top dose activation, actives largely listed as activators; hit rate 2.4% among 320,000; AID 485313;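 also: % of control where 0% means no effect; nearly all actives have a fitted effect of over 60% in size; reporter is driven by a mutant NPC1 promoter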
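Quantitative HTS used a cell-based reporter: Huh7 cells stably bearing the NPC1 promoter upstream of luciferase were treated with compounds for 24 h, and promoter activation was read as luminescence.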
* = called active by the depositor; ? = inconclusive; / = no result given; & = joins results of further samples; [ ] = dose if it differs, or a comment. Unless noted, calls follow the shape of the dose curve; as a rule, active = well fitted curve in the direction sought with a large enough effect; inconclusive = small, poorly fitted or top-dose-only effect, or another doubt; inactive = no such curve, though single readings can be large; an effect the other way counts as inactive or inconclusive. Potency is read from the fitted curve at half-maximal effect. Some of the compounds tested; rates above refer to the full screens.

SMILES | MBNL1-CUG inh | uPA generation | VP16 counter | ELG1 genotox | BRCA1 expr act | Rab9 promoter act | RORg inh | CXXC DNA block | NPC1 promoter act
CN(C)CCCO[C@@H]1[C@H]2OC(C)(C)O[C@H]2O[C@@H]1[C@H](O)CO | / | 25% | / | -4% | -5% | 0%[46.1 µM] | / | / | 6%[46.1 µM]
CC(C)(S)[C@@H](N)C(=O)O | -6% | 7% | 4%&-8% | 0% | 3% | 0% | 9%&-15% | 17%&7% | -2%
O=C1/C(=C/c2cccs2)CCC/C1=C\c1cccs1 | 7% | -5% | 3% | ? | -51% | 3.5µM* | -12% | 5% | 1.3µM*
CO[C@H]1C=CO[C@@]2(C)Oc3c(C)c(O)c4c(O)c(c(C=NN5CCN(C)CC5)c(O)c4c3C2=O)NC(=O)C(C)=CC=C[C@H](C)[C@H](O)[C@@H](C)[C@@H](O)[C@@H](C)[C@H](OC(C)=O)[C@@H]1C | ? | -11% | -1% | 6% | 0% | -2% | -21% | 22% | -3%
C/C=C/C=C/C(=O)O | / | 8% | -8% | 2% | -2% | -9% | -2% | -1% | 3%
CNc1ccc([N+](=O)[O-])cc1 | / | -5% | 1% | 0% | 6% | -4% | 13% | / | -1%
N[C@H](Cc1c[nH]c2ccccc12)C(=O)O | / | / | 8% | / | / | / | -1%[10 µM] | -1% | /
CC(=O)Oc1cccc2c1C(=O)c1c(OC(C)=O)cc(C(=O)O)cc1C2=O | ? | 2% | -14%&-21% | 1% | 8% | 0% | ? | -6% | -2%
Clc1ccc([C@H](Cn2ccnc2)OCc2csc3c(Cl)cccc23)c(Cl)c1 | / | / | -13%[17 µM] | / | / | / | 1%[2.98 µM] | -3%[51.4 µM] | /
CC[C@](C)(CN(C)C)OC(=O)c1ccccc1 | / | / | / | / | / | / | / | 15%[51.4 µM] | /
CCOC(=O)OC(C)OC(=O)[C@@H]1N2C(=O)[C@@H](NC(=O)[C@H](N)c3ccccc3)[C@H]2SC1(C)C (some centres not stated) | / | -3% | / | 1% | 23% | -5% | / | / | -4%
CC(=O)OCC(=O)[C@H]1CC[C@H]2[C@@H]3CCC4=CC(=O)CC[C@]4(C)[C@H]3CC[C@]12C | -1% | -12% | -5%&5% | 1% | 0% | -8% | 16%&-10% | 4%&6% | -1%
CC[N+](C)(CC)CCOC(=O)C1c2ccccc2Oc2ccccc21 | / | -1% | -10%[17 µM] | -10% | 0% | -4% | 25%[16.9 µM] | ? | 3%
CCC(C)c1ccccc1O (configuration not stated) | / | 13% | 1%&2% | 1% | 11% | -5% | 22%&15% | / | 0%
c1ccc2c(c1)CSc1sccc1C2=C1CCNCC1 | 1% | -2% | 1% | -6% | -74% | -7% | 18% | 1% | -6%
COc1c(O[C@@H]2O[C@H](CO)[C@@H](O)[C@H](O)[C@H]2O)cc2c(c1OC)-c1ccc(SC)c(=O)cc1C(NC(C)=O)CC2 (some centres not stated) | / | ? | / | -12% | -7% | 2% | / | / | 3%
CC1CC(OC(=O)C(O)c2ccccc2)CC(C)(C)N1C (configuration not stated) | 1% | 6% | -1% | -3% | 3% | 0% | 17% | 1% | -3%
CCCC(=O)O[C@]1(C(=O)CO)CC[C@H]2[C@@H]3CCC4=CC(=O)CC[C@]4(C)[C@H]3[C@@H](O)C[C@@]21C | -16% | ? | 4% | 1% | 0% | -2% | 44% | 5% | -2%
CCCOc1cc(N)ccc1C(=O)OCCN(CC)CC | / | 25% | 5%[17 µM] | -2% | 16% | -5% | 3%[2.98 µM] | -9%[51.4 µM] | 0%
CN(C)[C@@H]1C(=O)C(C(N)=O)=C(O)[C@@]2(O)C(=O)C3=C(O)c4c(O)ccc(Cl)c4[C@@H](O)[C@H]3C[C@@H]12 | 98%[activator] | -17% | 0% | 3% | 4% | -10%[46.1 µM] | 15% | -4% | 1%[46.1 µM]
O=C(CCCN1CCC(O)(c2cccc(C(F)(F)F)c2)CC1)c1ccc(F)cc1 | / | -19% | 8% | 3% | -20% | -19%[46.1 µM] | -1% | 15% | -11%[46.1 µM]
CN(C)C(=O)Nc1ccccc1 | -8% | -1% | -2%&2% | -1% | 3% | -5% | -4%&3% | -5% | 1%
O=C1Cc2ccccc2N1c1c(Cl)cccc1Cl | 17% | 5% | -2% | -1% | 17% | -8% | -28% | -12% | -3%
C=CCOc1ccccc1OC[C@H](O)CNC(C)C | / | / | -12%[17 µM] | / | / | / | -10%[2.98 µM] | -5%[51.4 µM] | /
COc1ccc2cc1Oc1ccc(cc1)CC1c3c(cc4c(c3Oc3cc5c(cc3OC)CCN(C)C5C2)OCO4)CCN1C (configuration not stated) | / | / | 1% | / | / | / | -19% | 1% | /
COc1cc(OC)c2ccc(=O)oc2c1 | / | -10% | 3% | 8% | 0% | / | -34% | / | /
CC[C@@]1(c2ccccc2)NC(=O)N(C)C1=O | / | / | -2% | / | / | / | -5%[10 µM] | 4% | /
C=C(C)[C@H]1CC=C(C)C(=O)C1 | / | 9% | 2%&7% | 2% | 5% | 2% | 1%&-1% | / | -2%
O=CNc1ccccc1 | / | 4% | 11% | 0% | -2% | 1% | -12% | / | 7%
O=C(Nc1ccccc1)OC[C@H](CN1CCCCC1)OC(=O)Nc1ccccc1 | / | / | -10%[17 µM] | / | / | / | 27%[2.98 µM] | -3%[51.4 µM] | /
Cc1ccc(S(=O)(=O)NC(=O)NC(C)Cc2ccccc2)cc1 (configuration not stated) | 5% | / | ? | 9% | -5% | 2% | 19%&19% | 9%&-7% | 0%

Given with two lines to a compound: entries from further up.
Results follow in this order: MBNL1-CUG inh	uPA generation	VP16 counter	ELG1 genotox	BRCA1 expr act	Rab9 promoter act	RORg inh	CXXC DNA block	NPC1 promoter act
> CC[C@@]1(c2ccccc2)NC(=O)N(C)C1=O
 : /	/	-2%	/	/	/	-5%[10 µM]	4%	/
> C=C(C)[C@H]1CC=C(C)C(=O)C1
 : /	9%	2%&7%	2%	5%	2%	1%&-1%	/	-2%

Results in VP16 counter, Rab9 promoter act and NPC1 promoter act, for 6 of the compounds above:
| SMILES | VP16 counter | Rab9 promoter act | NPC1 promoter act |
| --- | --- | --- | --- |
| O=CNc1ccccc1 | 11% | 1% | 7% |
| CC(=O)Oc1cccc2c1C(=O)c1c(OC(C)=O)cc(C(=O)O)cc1C2=O | -14%&-21% | 0% | -2% |
| CNc1ccc([N+](=O)[O-])cc1 | 1% | -4% | -1% |
| CCCOc1cc(N)ccc1C(=O)OCCN(CC)CC | 5%[17 µM] | -5% | 0% |
| O=C1/C(=C/c2cccs2)CCC/C1=C\c1cccs1 | 3% | 3.5µM* | 1.3µM* |
| c1ccc2c(c1)CSc1sccc1C2=C1CCNCC1 | 1% | -7% | -6% |

Bioassay records as filed in PubChem BioAssay.
